VDR inh = vitamin D3 receptor (human) inhibition; P11473; VDR-SRC2-3 peptide fluorescence polarization, 2 h; Potency, µM, for the others: max response, negative = inhibition, most hits filed as inhibitors; 400,000 compounds, 0.93% hits; active means well fitted inhibition curve with a large enough effect; inconclusive means small, poorly fitted or top-dose-only effect, or another doubt; inactive means no such curve, though single readings can be large or run the other way; further: series mostly up to about 120 µM
Target sequence (P11473 whole entry, looked up): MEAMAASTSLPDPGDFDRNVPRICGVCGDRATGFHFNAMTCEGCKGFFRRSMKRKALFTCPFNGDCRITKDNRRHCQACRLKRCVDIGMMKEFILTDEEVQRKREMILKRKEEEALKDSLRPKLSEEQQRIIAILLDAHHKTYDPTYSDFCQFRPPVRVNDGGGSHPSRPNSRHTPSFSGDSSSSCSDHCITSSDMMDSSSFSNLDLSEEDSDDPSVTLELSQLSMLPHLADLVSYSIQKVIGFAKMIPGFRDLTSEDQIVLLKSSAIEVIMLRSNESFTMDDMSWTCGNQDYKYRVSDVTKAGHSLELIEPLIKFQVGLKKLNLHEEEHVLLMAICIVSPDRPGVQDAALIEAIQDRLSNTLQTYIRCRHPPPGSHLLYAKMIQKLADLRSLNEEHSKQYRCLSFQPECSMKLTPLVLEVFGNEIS
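Measured by FP: displacement of SRC2-3 coactivator peptide from VDR by library compounds, following a two-hour ambient incubation.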
* = called active by the depositor; ? = inconclusive; & = joins results of further samples; [ ] = another dose, or the depositor's remark. On the % scale 0 is the no-effect control and ±100 the full control effect; potency means the concentration at half of the fitted maximal effect. The list is partial; count on the stated rates, not on these rows.

Molecule	VDR inh
CCOc1ccccc1N(CC)C(=O)Cn1ncc2c(=O)oc3ccccc3c21	-3%
O=C(N/N=C/c1ccc(N2CCOCC2)o1)c1cccc([N+](=O)[O-])c1	?
c1ccc(NCCSc2nc3ccccc3s2)cc1	-8%
N#Cc1c(Nc2ccccc2)sc(C(=O)c2ccccc2)c1N	0%
COC(=O)c1cc(Br)ccc1-c1ccc(/C=N/n2nnnc2N)o1	-7%
COc1ccc2oc(-c3ccc(NC(=O)c4ccc(Cl)cc4Cl)cc3)nc2c1	-17%
Cc1cc2occ(CC(=O)NC3=NCCS3)c2cc1C(C)C	10%
CCC(C(=O)NC(C)(C)C)N(C(=O)Cn1nnc(-c2ccccc2F)n1)c1cccc2c1CCCC2 (stereo unspecified)	-1%
NNC(=O)COc1ccc(F)cc1	-22%
Cc1ccc(CSc2nnc(-c3ccncc3)o2)c(C)c1	1%
O=CNC(Cc1ccccc1)C(=O)O (stereo unspecified)	6%
CCCCCC/C(C=O)=C\c1ccccc1	-2%
COc1ccc2c(CC(=O)Nc3cccc(S(=O)(=O)N4CCOCC4)c3)coc2c1	-3%
COc1ccc(NC(=O)N(C)C[C@H]2Oc3ccc(NC(=O)c4ccncc4)cc3C(=O)N([C@H](C)CO)C[C@@H]2C)cc1	17%
Cc1nc2c(C(=O)NCCc3ccccc3)c[nH]n2c(=O)c1Cc1ccccc1F	?
Cc1cc(C(=O)Nc2ccc3c(c2)OCCO3)c2ccccc2n1	-15%
CCN(C[C@H]1N[C@@](Cc2ccccc2)(C(=O)OC)[C@H]2C(=O)N(Cc3ccccc3)C(=O)[C@@H]12)S(=O)(=O)c1ccc(F)cc1	0%
COCCn1c(C)cc(C(=O)CSc2nc3ccccc3c(=O)n2C(C)COC)c1C (stereo unspecified)	12%
Cc1cccc(Oc2cc([N+](=O)[O-])cc3c2C(=O)Nc2ccccc2O3)c1	-15%
O=C(NCc1ccco1)c1cc2nc(C3CC3)cc(C(F)(F)F)n2n1	9%
Cc1sc(-c2ccccn2)nc1OC(=O)c1cccc(Cl)c1Cl	15%
CCc1ccc(N2C(=O)CC(c3cc(OC)ccc3OC)C3=C2COC3=O)cc1 (stereo unspecified)	-11%
COc1ccc(OC)c(C2=NOC(C(=O)NCc3cccs3)C2)c1 (stereo unspecified)	-4%
CCCCN(C)CCCNC(=O)C1CCN(S(=O)(=O)CC)CC1	-5%
COc1ccccc1C(=O)n1nc(-c2cccnc2)nc1NCc1ccccc1	21%&6%
CC(C)NC(=O)c1sc2nc3c(c(-c4cccs4)c2c1N)CN(C)CC3	-13%
Cc1ccc(-c2nc(-c3cc4c([nH]c3=O)CC(C)(C)CC4=O)sc2C)cc1	4%
Cc1cc(C(F)(F)F)nn1CC(=O)NCc1ccccc1	15%
CCN1C(=O)N(CC)C2C1N(C(C)=O)C(=O)N2C(C)=O (stereo unspecified)	-9%
COc1cc(OC)cc(C(=O)Nc2nnc(-c3cccnc3)o2)c1	-2%
COc1ccccc1-c1nnc(NC(=O)c2ccc(S(=O)(=O)N3CCOCC3)cc2)o1	-4%
COc1ccccc1C(=O)Nc1sc2c(c1C(=O)NCc1ccco1)CCCC2	3%
Cc1sc2nc(COC(=O)C(NC(=O)c3ccc(Cl)cc3Cl)C(C)C)[nH]c(=O)c2c1C (stereo unspecified)	-11%
NC(=O)c1ccc(N2CCN(c3ccccc3O)CC2)c([N+](=O)[O-])c1	-16%
Cc1nc(C(=O)NNC(=O)Nc2ccc(Cl)cc2)cs1	-11%
CN(C)S(=O)(=O)c1ccc(C(=O)NCCOc2ccc(F)cc2)cc1	-1%
Cc1nnc(NC(=O)CSc2nc(C(C)C)nc3sc(C)c(C)c23)s1	1%
N#Cc1ccc(CSc2nnc3[nH]c(=O)cc(N)n23)cc1	-18%
COc1ccc2c(c1)OC/C(=C/c1ccc(OC)c(OC)c1)C2=O	22µM*
O=C(NCCN1CCCCC1)c1ccc2c(c1)OCCO2	1%
CNC[C@@H](Cc1ccccc1)NC[C@@H](CC1CCCCC1)NCCCc1ccccc1	-22%
Cc1ccc(NC(=O)c2ccc(OC(=S)N3CCOCC3)cc2)cc1	13%
c1ccc(-c2csc(Nc3ncccn3)n2)cc1	11%
CCOc1ccc(C(=O)Nc2ccc(S(=O)(=O)NCC3CCCO3)cc2)cc1OCC (stereo unspecified)	-12%
Cc1cc(C)cc(C(=O)NCC(=O)OCC(=O)NC2CC2)c1	5%
COc1ccc(N2CCN(c3nc4c(C)cccn4c(=O)c3/C=C(\C#N)C(N)=O)CC2)cc1	-18%
CCC1CCCCN1CCNC(=O)C1CCN(S(=O)(=O)c2cccc3nsnc23)CC1 (stereo unspecified)	13%
CCc1nnc(NC(=O)Nc2ccccc2OC)s1	-4%
COC(=O)CNC(c1ccccc1)c1cc(Cl)ccc1NC(=O)c1cccc(Cl)c1 (stereo unspecified)	7%
N/C(=N\OC(=O)CSc1ccccc1)c1ccncc1	4%

Additional entries.
Molecule	VDR inh
COc1cccc(/C=C2\C(=O)C(=O)c3ccccc32)c1	89µM*
COc1ccc(-c2nnc(SCC(=O)N3CCCC3)o2)cc1	-7%
Cc1nnc(SCc2ccccc2)nc1/C=C/NOCc1ccc(Cl)cc1Cl	-19%
Cc1ccc(N2CCCCn3c2nc2c3c(=O)[nH]c(=O)n2C)cc1	13%
Cc1ccc2nc3c(cc2c1)c(NC(=O)C(C)(C)C)nn3CC(C)C	32%[activator]
CCOC(=O)c1c(NC(=O)OC)sc2c1CCC2	-11%
CCNS(=O)(=O)c1ccc(CCC(=O)Nc2ccc(C(=O)OC)cc2)cc1	10%
Cc1cnc(=O)[nH]c1SCc1ccc([N+](=O)[O-])cc1	-21%
Cc1ccc(/C=N/NC(=O)c2cc(-c3ccccc3)nc3ccccc23)o1	1%
O=C(C1CCCN1S(=O)(=O)c1cccc2cccnc12)N1CCn2c1nc1ccccc12 (stereo unspecified)	?
COCCN(C(=O)COC(=O)/C=C/c1cccc(OC)c1)c1c(N)n(CC(C)C)c(=O)[nH]c1=O	1%
CC(=O)c1cccc(NC(=O)C2CCN(S(=O)(=O)c3ccc(C)cc3)CC2)c1	-1%
COC(=O)c1ccc2c(=O)n(CCCCCC(=O)NCc3ccc(Cl)cc3)c(=O)[nH]c2c1	10%
Cc1cc2nc(-c3ccc(SCC(=O)N4CCN(C(=O)c5ccco5)CC4)nc3)[nH]c2cc1C	-6%
Cc1ccc(S(=O)(=O)Nc2cc3c(cc2Cl)n(C)c(=O)c(=O)n3C)cc1	-9%
O=C(Nc1ccccc1N1CCCC1)c1cccnc1Cl	20%
COc1ccc(CNC(=O)COC(=O)c2ccc(OCc3c(C)noc3C)cc2)cc1OC	?
CCN(CC)S(=O)(=O)c1ccc(N2CCOCC2)c(NC(=S)NC(=O)c2ccco2)c1	?
COCCNC(=S)Nc1ccccc1[N+](=O)[O-]	0%
CCC(Sc1nc2cc(OC)c(OC)cc2c(=O)n1Cc1ccc(Cl)cc1)C(=O)NCCOC (stereo unspecified)	11%

Seven compounds already listed, arranged by formula weight, descending:
Molecule	VDR inh
Cc1cc2nc(-c3ccc(SCC(=O)N4CCN(C(=O)c5ccco5)CC4)nc3)[nH]c2cc1C	-6%
COCCN(C(=O)COC(=O)/C=C/c1cccc(OC)c1)c1c(N)n(CC(C)C)c(=O)[nH]c1=O	1%
COC(=O)c1ccc2c(=O)n(CCCCCC(=O)NCc3ccc(Cl)cc3)c(=O)[nH]c2c1	10%
CC(=O)c1cccc(NC(=O)C2CCN(S(=O)(=O)c3ccc(C)cc3)CC2)c1	-1%
Cc1ccc(S(=O)(=O)Nc2cc3c(cc2Cl)n(C)c(=O)c(=O)n3C)cc1	-9%
O=C(Nc1ccccc1N1CCCC1)c1cccnc1Cl	20%
COCCNC(=S)Nc1ccccc1[N+](=O)[O-]	0%

Other entries:
Molecule	VDR inh
CCCNC(=S)N1CCN(C)CC1	-28%
Cc1ccc(S(=O)(=O)NC(C(=O)N2CCOCCOCCOCC2)c2ccccc2)cc1 (stereo unspecified)	4%
COc1ccccc1-c1cc(C(F)(F)F)nc(N2CCN(c3ccccc3)CC2)n1	-2%
Cc1cccc(NC(=O)N2CCC(C(=O)c3ccc(F)cc3)CC2)c1	-2%
CC(C)CC(=O)NC(=S)NCCc1ccccc1	7%
CCOC(=O)c1ccc(NC(=O)C(Cc2ccccc2)NS(=O)(=O)c2ccc(Br)s2)cc1 (stereo unspecified)	-13%
Clc1ccc(-c2ccc(CNCCSc3nnnn3-c3ccccc3)o2)cc1	13%
CC1C(=O)N2CCCc3cc(S(=O)(=O)NCc4ccc(Cl)cc4)cc1c32 (stereo unspecified)	-3%
Cn1cc(C(=O)c2cccc(Cl)c2Cl)cc1C(=O)O	-4%
O=C(Nc1nccs1)c1cc2sccc2n1Cc1ccc(F)cc1	17%
Cc1ccc(C(=O)NNC(=O)CCCCC(=O)NNC(=O)c2ccc(C)cc2)cc1	10%
O=C(OCc1c(-c2ccccc2)ncc2ccccc12)c1ccc(Br)cc1	-6%
CN(CC(=O)Nc1ccc(Cl)c(C(F)(F)F)c1)C(=O)c1ccc(S(=O)(=O)N2CCOCC2)cc1	5%
CCN(CC)CC(O)CNc1ccnc2c(Cl)ccc(Cl)c12 (stereo unspecified)	-17%
Cn1c(=NC(=O)c2ccccc2[N+](=O)[O-])sc2cc(S(C)(=O)=O)ccc21	13%
CN(C)/N=C/C=C1\CCC/C(=C\c2ccc(F)c(F)c2)C1=O	?
O=C(CCc1ccccc1)Nc1ccc(Cl)cn1	-4%
CC1CCCCC1NC(=O)c1nn(C)c2c1CS(=O)(=O)c1ccccc1-2 (stereo unspecified)	-8%
Cn1nc([N+](=O)[O-])nc1Sc1nnnn1-c1ccc(C(=O)O)cc1	-4%
CCOc1c(OC(C)=O)ccc(/C=C/c2ccc3cccc(OC)c3n2)c1[N+](=O)[O-]	-9%
Cc1ccc(/C=N/N2CCN(Cc3ccc(Cl)cc3)CC2)o1	?
CCOc1ccc(NC(=O)COc2ccc(C(=O)NC(C)c3ccc(S(N)(=O)=O)cc3)cc2OC)cc1 (stereo unspecified)	-7%
Cc1cc([N+](=O)[O-])ccc1NC(=O)c1cccc(NC(=O)C(C)C)c1	12%
COc1cccc(NC(=O)CN(C)C(=O)Cn2[nH]c(=O)c3ccccc3c2=O)c1	-3%
Cc1ccc(NC(=O)COC(=O)C2COc3ccccc3O2)cc1S(=O)(=O)N1CCOCC1 (stereo unspecified)	-5%
CC(/C=C1\SC(=S)N(c2ccc(C(=O)O)cc2)C1=O)=C\c1ccccc1	89µM*
Cc1ccc(N2CC(C(=O)Nc3ccc(Cl)cc3Cl)CC2=O)cc1 (stereo unspecified)	9%
CC(=O)N1CCN(c2ccc(Nc3ncnc4c3oc3ccccc34)cc2)CC1	-4%
O=C(Nc1cccc(-n2cnnn2)c1)c1ccc(Cl)cc1Cl	-23%
Cc1ccc(OCC(=O)Nc2ccc(CN3CCCCC3)cc2)c(C)c1	18%
CCn1c(SCC(=O)Nc2cccc(NC(C)=O)c2)nc2c([nH]c3ccccc32)c1=O	-2%
CCOC(=O)Cc1cnc(N)s1	5%
COc1cc(Cl)c(CN2CCC(CCC(=O)NC3CC3)CC2)cc1OC	-18%
O=C(Nc1ccccc1F)Nc1ccccc1Br	-5%
COc1cc(C)ccc1OCCSc1nc2ccc(NC(=O)c3ccco3)cc2s1	4%
O=C1CC(N(CCc2ccccc2)C(=S)Nc2ccccc2)C(=O)N1c1ccc(Br)cc1 (stereo unspecified)	-9%
COc1ccccc1C(=O)OCCN=C1NS(=O)(=O)c2ccccc21	-6%
CCCn1c(N)c(N2CCCCC2)c(=O)n(CC(=O)Nc2ccc(OC(F)(F)F)cc2)c1=O	5%
Cn1c(-n2cccc2)c(-c2c(-c3ccc(F)cc3)[nH]c3c2c(=O)n(C)c(=O)n3C)c(=O)n(C)c1=O	9%
COc1ccccc1NC(=O)CSc1nnc(COc2ccccc2OC)n1C	10%
CCC(=O)c1ccc(OCC(=O)Nc2ccccc2C(=O)N2CCCCC2)cc1	1%
O=C1N(Cc2cccc(Cl)c2)C[C@@H]2C[C@@H](c3cccc4cccnc34)N3CCC[C@@]123	14%
S=C(NCc1ccc(Cl)cc1)NC1CCN(Cc2ccccc2)CC1	-10%
O=C(NC1CCS(=O)(=O)C1)c1ccccc1Cl (stereo unspecified)	1%
CCOc1nc(C)ccc1-c1noc(C)n1	5%
Cc1ccc(N2C(=O)C3CCC(C)(C2=O)C3(C)C)cc1C (stereo unspecified)	9%
CCOC(=O)c1ccccc1NC(=S)N1CCN(C(=O)c2ccco2)CC1	3%
CCOc1ccc(NC(=O)CSc2nc3ccsc3c(=O)n2C(C)CC)cc1 (stereo unspecified)	-3%
COc1cccc2cc(-c3ccccc3)oc12	-21%
O=C1Nc2ccc(NS(=O)(=O)c3cccs3)c3cccc1c23	-12%

Continued; it opens with the three that closed the last part.
Molecule	VDR inh
CCOc1ccc(NC(=O)CSc2nc3ccsc3c(=O)n2C(C)CC)cc1 (stereo unspecified)	-3%
COc1cccc2cc(-c3ccccc3)oc12	-21%
O=C1Nc2ccc(NS(=O)(=O)c3cccs3)c3cccc1c23	-12%
COc1ccccc1NS(=O)(=O)c1cccc(C(=O)NC2CCN(Cc3ccccc3)CC2)c1	-4%
Cc1ccn2c(NC3CCCCC3)c(-c3ccc(C)o3)nc2c1	-5%
O=C(NCCc1ccncc1)Nc1ccccc1Cl	-10%
COc1ccccc1CNc1ncnc2nc[nH]c12	1%

Bioassay records from PubChem BioAssay.
